MT1-MMP act inh – blocks activation of human MT1-MMP. hit rate 0.061% among 360,000. HT1080 RFP-PRO-GFP cells, GFP/RFP ratio fluorescence, overnight; percent of plate control window, DMSO zero. P50281. AID 651647. GFP/RFP ratio change, % at 20 µM;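 active = GFP/RFP ratio change of at least 30% with cell ATP level not reduced by more than half and red fluorescence within 50% of control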; also: strong numbers were not always called active
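Compound: 20 µM single dose, 1% DMSO / System: HT1080 RFP-PRO-GFP cells / Controls: DMSO and RFP-L50D-GFP cell wells / Read-out basis: GFP/RFP fluorescence ratio / Schedule: overnight compound exposure at 37 °C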
Rce1 inhib – inhibitors of yeast Ras-converting enzyme | Q03530 | yeast membranes, quenched prenylated peptide cleavage fluorescence | calls only | hit rate 0.27% among 290,000 | AID 2563;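 active = fall in fluorescence gain of 50% or more versus controls, with final raw signal at or below 3038400; inconclusive = same 50% fall but final raw signal above 3038400; inactive = fall in fluorescence gain under 50%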;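 also: plate controls were neutral control wells for no effect and wells lacking membranes for full effect; tested at 10 µM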
Target sequence (Q03530 whole entry, looked up): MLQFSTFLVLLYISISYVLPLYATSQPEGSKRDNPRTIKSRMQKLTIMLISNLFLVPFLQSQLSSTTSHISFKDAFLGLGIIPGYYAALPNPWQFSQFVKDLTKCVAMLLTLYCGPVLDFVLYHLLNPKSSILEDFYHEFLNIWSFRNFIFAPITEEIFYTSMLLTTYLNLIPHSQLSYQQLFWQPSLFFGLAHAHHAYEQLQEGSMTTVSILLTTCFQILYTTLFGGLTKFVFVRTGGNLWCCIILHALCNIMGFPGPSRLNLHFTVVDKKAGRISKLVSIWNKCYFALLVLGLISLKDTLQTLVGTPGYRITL
HIV Env fusion – blocks HIV Env-driven cell-cell fusion. HeLa-JRFL Env/CEM21 cell fusion, luciferase. inhibition, % at 12.3 µM. hit rate 1.1% among 360,000;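 active = mean replicate inhibition score of at least 50 and every replicate individually at or above 50; inconclusive = only one of the two criteria met; inactive = mean below 50 and not all replicates reaching 50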;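 also: 0% = plate neutral controls and 100% = maraviroc near 300 nM; one replicate is shown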
CSC inhib – cancer stem cell inhibition. cancer stem cell-like cells viability, luminescence. inhibition, % at 7.5 µM. hit rate 1.1% among 300,000;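 active = mean at 75% or more and at least half the replicates too; inconclusive = mean and replicates disagree; tested in HMLE shEcad cells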;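 also: 0% = median of negative and 100% = median of positive control wells; the first replicate is given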
eIF4H inh – inhibitors of RNA binding by human eIF4H | eIF4H fluorescence polarization binding assay | inhibition, % at 35 µM | hit rate 0.94% among 290,000 | Q15056;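 active = 50% or more with normal probe brightness, or confirmed in later tests; inconclusive = above 50% with abnormal brightness, or retests that disagree; inactive = below 50% or failed in later tests; about a fifth of its hits are not listed in these tables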;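 also: calls also rest on retests at 20 µM and on dose response follow-up; 0% = protein and probe with vehicle and 100% = probe without protein; strong numbers were not always called active; many hits fall short of the cut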
Yeast UUG start – yeast start codon fidelity modulation; activity score, % at 18.7 µM; S. cerevisiae UUG-firefly luciferase reporter, luminescence/redox ratio; hit rate 0.13% among 350,000;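 active = replicate mean at a twofold rise or more, about +100% in these data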;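 also: firefly luciferase made from a UUG start codon reports start codon fidelity; reporter light over untreated wells divided by growth signal over untreated wells; some hits fall short of that in this replicate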
PABP FP inh – blocks human PABP binding to poly(A) RNA | hit rate 1% among 290,000 | P11940 | fluorescence polarization | inhibition, % at 35 µM;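 active = 50% or more with normal probe brightness, or confirmed in later tests; inconclusive = above 50% with abnormal brightness, or retests that disagree; inactive = below 50% or failed in later tests; about a fifth of its hits are not listed in these tables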;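 also: calls also rest on retests at 20 µM and on dose response follow-up; controls were probe without protein and protein plus probe with vehicle; some compounds called inactive have numbers as strong as hits; many hits fall short of the cut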
eIF4H inh retest – also measured in eIF4H inh; calls as there; inhibition, %; compound at 20 µM; confirmation average;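 mean of two retest wells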
PABP FP inh retest – also measured in PABP FP inh; calls as there; inhibition, %; compound at 20 µM; confirmation repeats;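 mean of two retest wells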
MT1-MMP act inh RFP – recorded beside MT1-MMP act inh, whose call it bears; RFP signal change, %; measured here: RFP expression control read;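 0 = vehicle wells; hits needed this value within 50% of zero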
* = called active by the depositor; i = inactive; ? = inconclusive; nt = no result given. Not all compounds are listed; count on the stated rates, not on these rows.

SMILES	MT1-MMP act inh	MT1-MMP act inh RFP	Rce1 inhib	HIV Env fusion	CSC inhib	eIF4H inh	Yeast UUG start	PABP FP inh	others
CCN1C(=C(C#N)C#N)C=Cc2cc(C)ccc21	3	0	i	-34	-8	76	nt	28	eIF4H inh retest=-8;PABP FP inh retest=11
CC1(C)C=Cc2c(c3ccccc3[nH]c2=O)O1	-3	6	i	nt	-11	-1	-9	-3
CCC1CCC2(CC1)NC(=O)N(CC(=O)Nc1ccc(OC)c(Cl)c1)C2=O (configuration not stated)	3	1	nt	nt	9	nt	-15	nt
Cc1cc(C(=O)NNC(=O)/C=C/c2ccccc2Cl)c(C)o1	1	-1	i	-35	nt	3	-6	45
CCCC(=O)N1CCCC1(C)C(=O)Nc1cc(OC)ccc1OC (configuration not stated)	-1	8	nt	-6	nt	nt	-20	nt
CCCOc1ccc(CC(=O)NCCc2ccccc2)cc1OC	-2	-8	i	3	nt	-7	-1	-1
CCCOc1ccc(/C=C/c2[nH]c(=O)[nH]c(=O)c2[N+](=O)[O-])cc1OCC	-10	-6	i	-2	22	?	nt	?
Cc1nnc(SCC(=O)Nc2ccc(S(=O)(=O)Nc3ccc(Cl)nn3)cc2)s1	-1	1	i	5	3	41	-15	28
COC(=O)CN(c1ccc(OC)cc1OC)S(=O)(=O)c1ccccc1[N+](=O)[O-]	2	3	i	-8	-9	-10	nt	2
CN1C(=O)/C(=C/c2ccccc2OCc2ccc(C(=O)O)cc2)NC1=S	-1	1	i	18	1	8	nt	-7
CC1CCN(CCCNC(=O)CCNC(=O)Cn2cnc3ccccc3c2=O)CC1	5	2	i	5	9	5	-10	4
CC(C)(C)NC(=O)C1Cc2ccccc2CN1C(=O)Nc1cccc(Cl)c1 (configuration not stated)	-2	-2	i	nt	-3	-6	-5	-5
COc1ccc(CN(CCCN2CCOCC2)S(=O)(=O)N(C)C)cc1OC	0	5	i	nt	-6	-6	-2	6
COC(=O)CCCCC1SCC(NC(=O)c2ccccc2)C1OC(C)=O (configuration not stated)	2	2	i	9	-9	-1	nt	12
Cc1cccc(C)c1NC(=S)NC(=O)c1ccc(Br)o1	5	0	i	3	0	0	-17	4
Cc1ccc2cc([N+](=O)[O-])ccc2n1	-2	-1	i	-14	-9	-7	-16	2
CC(C)C1=NN(C(=O)c2cccnc2)C(O)(C(F)(F)F)C1 (configuration not stated)	7	1	i	nt	-8	3	-20	1
Cc1ccc(NC(=O)CSc2nc3cc(C(=O)NCC4CCCO4)ccc3c(=O)n2CC2CCCO2)cc1 (configuration not stated)	-1	0	nt	-3	nt	nt	-21	nt
O=C(CNS(=O)(=O)c1ccccc1)N/N=C/c1ccc(O)cc1	0	0	i	-6	-23	3	nt	14
O=C(OCC(=O)N1CCOCC1)c1ccccc1Cc1ccccc1	1	9	i	-37	-2	-1	nt	-5
COc1ccc(Cl)cc1C(=O)Nc1ccc(CN2CCCCC2)cc1	1	0	i	5	-8	-7	nt	-11
CC(C)c1cccc(-c2ccc3c(c2)S(=O)(=O)c2cccc(C(=O)NCc4ccccc4Cl)c2C3=O)c1	0	-8	nt	nt	31	nt	-15	nt
Clc1ccc(Cl)c2sc(N3CCOCC3)nc12	0	1	i	-299	-5	nt	-7	nt
CCN(Cc1ccncc1)C(=O)c1ccc(Br)o1	-3	0	i	-8	-9	-4	-11	6
Cc1[nH]c2ccccc2c1Cc1nnc(SCC(N)=O)o1	0	5	i	24	nt	-3	13	3
CC(C)c1ccc(/C=N/NC(=O)CC(=O)NCc2ccccc2)cc1	2	1	i	0	-2	0	nt	-4
COc1ccc(S(=O)(=O)N2CCc3ccccc32)cc1C(=O)Nc1ccc(NC(C)=O)cc1	-2	3	nt	nt	-3	nt	-13	nt
COc1ccc(N(C)S(=O)(=O)c2ccc(Cl)c(C(=O)NCC(C)(C)N3CCOCC3)c2)cc1	-3	-18	nt	13	8	nt	-11	nt
COCC(C)N1CCC(Oc2ccc(C(=O)NCc3ccccn3)cc2)CC1 (configuration not stated)	-2	1	i	-5	1	8	-29	0
CCOC(=O)C1=C(C)Nc2nc(SCC)nn2C1c1ccc(OC)cc1 (configuration not stated)	-10	-6	i	-95	-15	4	-9	-4
COc1cc(C2=NOC(C(=O)Nc3c(C)n(C)n(-c4ccccc4)c3=O)C2)cc(OC)c1OC (configuration not stated)	4	1	i	4	-3	2	5	8
CN(CC(=O)O/N=C(\N)c1ccccn1)S(=O)(=O)c1ccccc1	2	-1	i	nt	-8	11	nt	-1
O=C1N=c2ccccc2=C1c1sc(=S)n(Cc2ccccc2Cl)c1O	7	4	i	-10	22	13	-13	0
CC(C)=CCN1CCN(Cc2cnc(C)s2)CC1CCO (configuration not stated)	-3	-2	i	2	-12	-8	-20	1
O=c1c2c(nc3c(-c4ccccc4)c[nH]n13)CCCC2	3	-4	i	nt	0	4	-10	5
COc1ccc(-c2noc(CCCOc3ccccc3)n2)cc1OC	1	1	i	nt	7	-14	-12	3
COc1ccc2c(c1[N+](=O)[O-])CCC/C2=N/OC(=O)c1cccc2ccccc12	2	2	i	nt	2	-2	nt	6
COc1ccc(/C=N/NC(=S)Nc2ccccc2)cc1COc1ccc(F)cc1F	5	-4	i	-5	0	7	nt	11
CC1CC(=NNC(=O)C2COc3ccccc3O2)CC(C)(C)C1 (configuration not stated)	-1	4	nt	nt	-9	nt	-14	nt
C=C1CCN([C@@H](CC(C)C)C(=O)NCc2cc(OC)c(OC)c(OC)c2)S(=O)(=O)c2ccccc21	0	-2	i	-13	nt	nt	-10	nt

4 entries drawn at random from the list so far:
SMILES	MT1-MMP act inh	MT1-MMP act inh RFP	Rce1 inhib	HIV Env fusion	CSC inhib	eIF4H inh	Yeast UUG start	PABP FP inh	others
Cc1[nH]c2ccccc2c1Cc1nnc(SCC(N)=O)o1	0	5	i	24	nt	-3	13	3
CN(CC(=O)O/N=C(\N)c1ccccn1)S(=O)(=O)c1ccccc1	2	-1	i	nt	-8	11	nt	-1
O=c1c2c(nc3c(-c4ccccc4)c[nH]n13)CCCC2	3	-4	i	nt	0	4	-10	5
CC(C)=CCN1CCN(Cc2cnc(C)s2)CC1CCO (configuration not stated)	-3	-2	i	2	-12	-8	-20	1

(next part)
SMILES	MT1-MMP act inh	MT1-MMP act inh RFP	Rce1 inhib	HIV Env fusion	CSC inhib	eIF4H inh	Yeast UUG start	PABP FP inh	others
Cn1c(N)c(C(=O)Nc2cccc(Cl)c2)c(=O)n(C)c1=O	1	3	i	6	-7	-5	-15	5
O=C(/C=C/c1ccc([N+](=O)[O-])cc1)N1CCN(S(=O)(=O)c2cccs2)CC1	2	-6	i	2	4	-6	nt	4
CCOC(=O)c1c(NC(=O)C(C)N2CCN(C(=O)c3ccco3)CC2)sc2c1CCCC2 (configuration not stated)	-16	-12	i	56*	38	8	-2	-6
CN(Cc1ccc(F)cc1)C(=O)c1cccc(S(=O)(=O)N2CCN(c3ccc(F)cc3)CC2)c1	-8	-25	i	57*	0	nt	-22	nt
N#C/C(=C/c1ccccc1)c1nn(CCO)c(N)c1C#N	-5	1	i	-151	-6	-6	-18	1
CCOC(=O)CSc1ncnc2c1cnn2-c1ccc(C)cc1	1	-6	i	nt	-7	-7	-5	-1
Cn1c(=O)c2c(ncn2CC(=O)OCC(=O)NCc2ccc(F)cc2)n(C)c1=O	7	6	nt	3	nt	nt	-25	nt
CC(=O)Nc1c(C(=O)Nc2ccc3c(c2)OCO3)oc2ccccc12	0	3	i	?	-6	-10	-19	15
CC1(C(=O)N2CCN(C(=O)c3ccco3)CC2)CC1(Br)Br (configuration not stated)	-3	3	nt	1	-1	-4	-11	-16
COc1ccc(C2=NN(C(=O)CCC(=O)O)C(c3ccc(F)cc3)C2)cc1 (configuration not stated)	-1	2	i	-4	3	-9	-4	-1
COc1ccc(-c2csc3ncnc(Oc4ccc5c(C)cc(=O)oc5c4)c23)cc1	2	1	i	2	23	-11	-11	-10
COc1ccc([C@H]2/C=C\CN(S(C)(=O)=O)[C@@H](C)C(=O)N2Cc2ccc(F)cc2)cc1	6	1	i	-10	-8	nt	-13	nt
COc1ccccc1C(=O)Nc1ccc2c(c1)OCCO2	7	4	i	nt	-4	-16	-15	2
Cc1cc(C)cc(OCC(=O)NNC(=O)c2ccccn2)c1	6	6	nt	?	23	nt	-26	nt
CCOC(=O)C(C(=O)OCC)C(C#N)c1ccccc1 (configuration not stated)	-7	-1	i	nt	-5	-3	-15	-7
O=C(C1CCCC1)N1CCN(S(=O)(=O)c2ccc(F)c(F)c2F)CC1	-1	-2	i	4	nt	-7	-19	-5
COc1ccc(CN(C(=O)CSc2nnc(-c3ccc(OC)c(OC)c3)o2)c2ccc(F)cc2)cc1	-9	-22	i	-19	-10	-6	-6	-3
O=C1N=C(N2CCc3ccccc3C2)S/C1=C\c1cccc(O)c1	-1	0	i	-13	nt	8	-11	11
O=C(NC1CCCCCCC1)C1c2ccccc2C(=O)N1Cc1ccco1 (configuration not stated)	0	-4	i	42	-12	1	-10	-3
Cc1ccc(C(=O)NCCCN2CCOCC2)cc1S(=O)(=O)N1CCCCC1	5	-1	nt	-32	nt	nt	-6	nt
CC1CCN(C(=O)CCC(=O)N2CC(C)Oc3ccccc32)CC1 (configuration not stated)	1	5	i	15	-9	-10	-10	-8
Cc1oc(-c2ccccc2Cl)nc1CSCC(=O)N1CCCC1	-4	-3	i	18	34	6	-23	30
COc1ccc(C2=NN(C(=O)CCC(=O)O)C(c3ccccc3F)C2)cc1 (configuration not stated)	-2	0	i	2	-8	-5	-1	-2
O=C(Nc1nnc(Cc2ccccc2)s1)c1cccs1	-6	-2	i	nt	21	-7	-9	-7
COc1ccccc1NC(=O)CCC(=O)OCc1ccc(Br)cc1	-9	-4	i	-3	-1	7	nt	3
CN1CCc2c(c3ccccc3n2C)C1	-1	1	nt	-54	-7	4	-22	-2
O=S(=O)(Nc1ccc(-c2nc3cccnc3s2)cc1)c1cc(F)ccc1F	-3	2	i	-5	28	-7	nt	-5
Cc1ccc(C)c(S(=O)(=O)N2CCN(C(=O)c3ccc(OCc4c(C)noc4C)cc3)CC2)c1	4	-8	i	-10	-10	nt	nt	nt
Cc1coc2c1c(C)cc1oc(=O)c(CC(=O)N[C@H](C(=O)O)C(C)C)c(C)c12	-1	-3	i	2	-3	-6	4	8
O=C(/C=C/c1cccc([N+](=O)[O-])c1)NCCSCc1c(Cl)cccc1Cl	6	4	i	nt	14	7	-18	4
Cc1cccc2cc(CN(Cc3ccc(F)cc3)Cc3nnnn3C3CCCC3)c(=O)[nH]c12	-13	-14	i	nt	30	-6	-3	-5
CCN(CC)CCNC(=O)c1cn(CC)c2cc(N3CCN(C(=O)c4ccco4)CC3)c(F)cc2c1=O	-2	5	i	-2	-2	-5	nt	6
Cc1nc(N2CCC(C)CC2)c2c(C)c(C(=O)Nc3cccc(C(F)(F)F)c3)sc2n1	-5	-6	i	-21	28	-8	nt	-1
O=C(COc1ccc(Cl)cc1)NCCNC(=O)c1cnccn1	2	3	i	-11	nt	6	nt	6
Nc1cc(C(=O)OCC(=O)NCCC2=CCCCC2)ccc1Cl	5	2	nt	nt	0	nt	-8	nt
Cc1ccc(-c2cc(C(=O)N3CCN(C(=O)c4ccco4)CC3)no2)cc1	-1	0	i	15	-1	-1	10	-4
O=C1c2cccnc2C(Nc2cccc(F)c2)N1Cc1ccco1 (configuration not stated)	0	6	i	-118	-3	8	-5	10
CCOC(=O)C1=C(C)Nc2ncnn2C1c1cccs1 (configuration not stated)	-4	3	i	-189	-11	-9	-20	-6
